Source: PubChem BioAssay (Broad Institute)
MLL AF4-AF9 inh – blocks AF4 peptide binding to human AF9; P42568; AlphaScreen, biotin-AF4 peptide binding to FLAG-AF9; inhibition, % at 10 µM; 0.47% of 350,000 active; AID 651704;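 active means every replicate reaching a set inhibition limit, whatever the replicate mean, cut at about 25% in these data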;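 further: 0% = plate neutral control median and 100% = total signal loss; the record names both 10 and 1 µM as test concentration; the first replicate is given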
Target sequence (P42568 whole entry, looked up): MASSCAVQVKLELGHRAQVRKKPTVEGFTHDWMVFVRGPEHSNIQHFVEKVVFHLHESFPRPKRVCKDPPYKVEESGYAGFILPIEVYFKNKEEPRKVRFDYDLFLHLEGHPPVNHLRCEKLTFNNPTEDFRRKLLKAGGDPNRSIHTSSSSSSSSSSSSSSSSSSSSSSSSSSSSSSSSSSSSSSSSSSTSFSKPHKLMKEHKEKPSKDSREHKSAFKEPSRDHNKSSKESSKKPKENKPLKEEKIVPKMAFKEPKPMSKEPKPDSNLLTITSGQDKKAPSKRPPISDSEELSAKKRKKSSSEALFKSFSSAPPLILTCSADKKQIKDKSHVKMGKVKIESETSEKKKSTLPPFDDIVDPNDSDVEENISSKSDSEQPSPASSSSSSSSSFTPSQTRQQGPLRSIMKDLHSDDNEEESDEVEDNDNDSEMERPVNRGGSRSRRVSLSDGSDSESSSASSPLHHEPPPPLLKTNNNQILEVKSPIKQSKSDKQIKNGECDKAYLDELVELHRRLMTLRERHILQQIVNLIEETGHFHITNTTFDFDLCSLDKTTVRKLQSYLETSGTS
Ecoli rRNA inh – selective bacterial rRNA inhibition in E. coli. 1.6% of 350,000 active. E. coli WT GFP vs humanized-ribosome RFP mutants, fluorescence, 24 h; active compounds read low; DMSO median 0, no signal -100. GFP signal change (wild-type ribosome), % (concentration not given with the values). AID 720706;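 active means significant combined selectivity score with lowered wild-type GFP, culture density cut under 30%, mutant RFP and density less affected; inactive means any of these conditions unmet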; further: one replicate is shown; some compounds called inactive have numbers as strong as hits
Ecoli rRNA inh OD600 – second read-out of Ecoli rRNA inh, no call of its own (marks repeat the call); OD600 change, %; measured here: OD600 growth;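 optical density of the mix in the first replicate; 0 = DMSO median and -100 = no signal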
Ecoli rRNA inh RFP – second read-out of Ecoli rRNA inh, no call of its own (marks repeat the call); RFP signal change, %; measured here: RFP humanized mutant strains;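 first replicate; 0 = DMSO median and -100 = no signal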
Starred values were filed as active, the others as inactive; & = joins results of further samples. A portion of the library; rates above refer to the full screens.

For Cc1ccc(S(=O)(=O)Nc2ccc3c(c2)C(=O)N([C@@H](C)CO)C[C@@H](C)[C@H](CN(C)Cc2ccc(C(=O)O)cc2)OCCCC[C@H](C)O3)cc1 the results were MLL AF4-AF9 inh -4.7, Ecoli rRNA inh 1, Ecoli rRNA inh OD600 3 and Ecoli rRNA inh RFP -0.1.
For O=C(c1ccccc1F)N1CC(=O)N2[C@H](CO)[C@@H](c3ccc(-c4cccnc4)cc3)[C@@H]2C1 the results were MLL AF4-AF9 inh -2.1, Ecoli rRNA inh 1, Ecoli rRNA inh OD600 12 and Ecoli rRNA inh RFP -2.1.
For C[C@H]1CN([C@@H](C)CO)C(=O)c2cc(NS(=O)(=O)c3cccs3)ccc2O[C@H]1CN(C)Cc1ccc(-c2ccccc2)cc1 the results were MLL AF4-AF9 inh 2.4, Ecoli rRNA inh 3, Ecoli rRNA inh OD600 -26 and Ecoli rRNA inh RFP 17.
CC(C)CC#Cc1ccc([C@@H]2[C@H](CO)N3C(=O)CN(S(=O)(=O)c4cccc(F)c4)C[C@@H]23)cc1 was read as MLL AF4-AF9 inh 0.7, Ecoli rRNA inh 8, Ecoli rRNA inh OD600 -11 and Ecoli rRNA inh RFP -0.2.
`COCC#Cc1ccc2c(c1)O[C@@H](CN(C)Cc1ccccn1)[C@H](C)CN([C@@H](C)CO)S2(=O)=O` gave MLL AF4-AF9 inh -8.0, Ecoli rRNA inh -6, Ecoli rRNA inh OD600 -13 and Ecoli rRNA inh RFP -0.3.
COCC(=O)NC[C@H]1[C@@H](c2ccccc2)[C@@H](CO)N1C(=O)c1ccccc1 was read as MLL AF4-AF9 inh -1.9, Ecoli rRNA inh 3, Ecoli rRNA inh OD600 -1 and Ecoli rRNA inh RFP -0.8.
For CCCNC(=O)Nc1ccc2c(c1)OC[C@H](C)N(Cc1ccccn1)C[C@@H](C)[C@@H](OC)CN(C)C2=O the results were MLL AF4-AF9 inh -0.3, Ecoli rRNA inh -1, Ecoli rRNA inh OD600 -7 and Ecoli rRNA inh RFP -2.4.
`C/C=C/c1ccccc1[C@@H]1[C@@H](C#N)N(C(=O)CN2CCOCC2)[C@@H]1CO` gave MLL AF4-AF9 inh -0.6, Ecoli rRNA inh 8, Ecoli rRNA inh OD600 5 and Ecoli rRNA inh RFP 2.1.
Screening CS(=O)(=O)Nc1ccc2c(c1)[C@H]1C[C@H](CC(=O)O)O[C@@H](CO)[C@H]1O2 returned MLL AF4-AF9 inh -2.5, Ecoli rRNA inh 4, Ecoli rRNA inh OD600 11 and Ecoli rRNA inh RFP -3.2.
For COc1ccc(CN(C)C(=O)CNC(=O)c2sc3ccccc3c2Cl)c(OC)c1OC the results were MLL AF4-AF9 inh -8.4, Ecoli rRNA inh -25, Ecoli rRNA inh OD600 -36 and Ecoli rRNA inh RFP -6.4.

Next part; it opens with the five that closed the last part.
COCC(=O)NC[C@H]1[C@@H](c2ccccc2)[C@@H](CO)N1C(=O)c1ccccc1 was read as MLL AF4-AF9 inh -1.9, Ecoli rRNA inh 3, Ecoli rRNA inh OD600 -1 and Ecoli rRNA inh RFP -0.8.
For CCCNC(=O)Nc1ccc2c(c1)OC[C@H](C)N(Cc1ccccn1)C[C@@H](C)[C@@H](OC)CN(C)C2=O the results were MLL AF4-AF9 inh -0.3, Ecoli rRNA inh -1, Ecoli rRNA inh OD600 -7 and Ecoli rRNA inh RFP -2.4.
`C/C=C/c1ccccc1[C@@H]1[C@@H](C#N)N(C(=O)CN2CCOCC2)[C@@H]1CO` gave MLL AF4-AF9 inh -0.6, Ecoli rRNA inh 8, Ecoli rRNA inh OD600 5 and Ecoli rRNA inh RFP 2.1.
Screening CS(=O)(=O)Nc1ccc2c(c1)[C@H]1C[C@H](CC(=O)O)O[C@@H](CO)[C@H]1O2 returned MLL AF4-AF9 inh -2.5, Ecoli rRNA inh 4, Ecoli rRNA inh OD600 11 and Ecoli rRNA inh RFP -3.2.
For COc1ccc(CN(C)C(=O)CNC(=O)c2sc3ccccc3c2Cl)c(OC)c1OC the results were MLL AF4-AF9 inh -8.4, Ecoli rRNA inh -25, Ecoli rRNA inh OD600 -36 and Ecoli rRNA inh RFP -6.4.
`COc1ccc(CN(C)C[C@@H]2Oc3ccc(NC(=O)Nc4ccc(C(F)(F)F)cc4)cc3C(=O)N([C@H](C)CO)C[C@@H]2C)cc1` gave MLL AF4-AF9 inh 3.4, Ecoli rRNA inh -33, Ecoli rRNA inh OD600 -44 and Ecoli rRNA inh RFP 23.
COc1ccccc1C(=O)OCC(=O)N1CCC(Cc2ccccc2)CC1 was read as MLL AF4-AF9 inh 2.6, Ecoli rRNA inh -17, Ecoli rRNA inh OD600 -33 and Ecoli rRNA inh RFP -4.4.
For CC(C)NC(=O)Nc1ccc2c(c1)C(=O)N([C@@H](C)CO)C[C@H](C)[C@@H](CN(C)S(=O)(=O)c1cccs1)OCCCC[C@H](C)O2 the results were MLL AF4-AF9 inh -1.2, Ecoli rRNA inh -3, Ecoli rRNA inh OD600 -3 and Ecoli rRNA inh RFP 0.1.
CO[C@H]1CN(C)C(=O)c2cc(NS(C)(=O)=O)ccc2OC[C@@H](C)N(CCC(F)(F)F)C[C@H]1C was read as MLL AF4-AF9 inh -1.6, Ecoli rRNA inh 1, Ecoli rRNA inh OD600 -8 and Ecoli rRNA inh RFP 0.2.
Screening CC1(Cc2c(Cl)cccc2Cl)C(=O)Nc2cc(-c3ccccc3Cl)ccc21 (configuration not stated) returned MLL AF4-AF9 inh -4.3, Ecoli rRNA inh 5, Ecoli rRNA inh OD600 7 and Ecoli rRNA inh RFP -1.9.
N#C[C@H]1[C@@H](c2ccc(-c3ccccc3)cc2)[C@@H](CO)N1C(=O)Cc1ccncc1 was read as MLL AF4-AF9 inh 2.6, Ecoli rRNA inh -1, Ecoli rRNA inh OD600 -10 and Ecoli rRNA inh RFP 2.0.
C[C@@H]1CN([C@H](C)CO)C(=O)c2cc(-c3ccc(F)cc3)cnc2O[C@H]1CN(C)CC1CCCCC1 was read as MLL AF4-AF9 inh -7.4, Ecoli rRNA inh 0, Ecoli rRNA inh OD600 -10 and Ecoli rRNA inh RFP -1.0.
Screening C[C@@H]1CN([C@@H](C)CO)C(=O)c2cccc(NC(=O)c3nc4ccccc4s3)c2O[C@H]1CN(C)C(=O)Nc1ccc(C(F)(F)F)cc1 returned MLL AF4-AF9 inh 1.7, Ecoli rRNA inh -6, Ecoli rRNA inh OD600 -8 and Ecoli rRNA inh RFP -0.4.
For CC(C)NC(=O)Nc1cccc2c1O[C@H](CN(C)Cc1ccc(Cl)c(Cl)c1)[C@H](C)CN([C@@H](C)CO)C2=O the results were MLL AF4-AF9 inh 1.5, Ecoli rRNA inh -6, Ecoli rRNA inh OD600 -15 and Ecoli rRNA inh RFP -1.4.
C[C@@H]1CCCCO[C@@H](CN(C)Cc2ccc(C(=O)O)cc2)[C@@H](C)CN([C@@H](C)CO)C(=O)c2cc(NS(C)(=O)=O)ccc2O1 was read as MLL AF4-AF9 inh -1.9, Ecoli rRNA inh 1, Ecoli rRNA inh OD600 -1 and Ecoli rRNA inh RFP 0.0.
CCCNC(=O)N[C@@H]1CC[C@H](CCn2cc(-c3cccc(F)c3)nn2)O[C@H]1CO was read as MLL AF4-AF9 inh 0.4, Ecoli rRNA inh -4, Ecoli rRNA inh OD600 -4 and Ecoli rRNA inh RFP 2.1.
Screening Cc1noc(C)c1NC(=O)Nc1ccc2c(c1)CC(=O)N([C@H](C)CO)C[C@H](C)[C@H](CN(C)Cc1ccncc1)O2 returned MLL AF4-AF9 inh -2.6, Ecoli rRNA inh 1, Ecoli rRNA inh OD600 5 and Ecoli rRNA inh RFP -1.2.
`C[C@@H]1CN([C@H](C)CO)S(=O)(=O)c2ccc(C#Cc3ccc(F)cc3)cc2O[C@H]1CN(C)C(=O)NC1CCCC1` gave MLL AF4-AF9 inh -3.6, Ecoli rRNA inh -3, Ecoli rRNA inh OD600 -6 and Ecoli rRNA inh RFP 4.6.
`CC(C)C#Cc1cnc2c(c1)C(=O)N([C@@H](C)CO)C[C@@H](C)[C@H](CN(C)C(=O)Nc1cc(F)ccc1F)O2` gave MLL AF4-AF9 inh -0.7, Ecoli rRNA inh 5, Ecoli rRNA inh OD600 9 and Ecoli rRNA inh RFP -1.7.
NS(=O)(=O)c1ccc(CCNc2ccn3nc(-c4ccccc4)cc3n2)cc1 was read as MLL AF4-AF9 inh -1.7, Ecoli rRNA inh -6, Ecoli rRNA inh OD600 -11 and Ecoli rRNA inh RFP -5.3.
For O=C(C[C@@H]1C=C[C@H](NC(=O)Nc2cc(F)ccc2F)[C@@H](CO)O1)NCCCN1CCOCC1 the results were MLL AF4-AF9 inh -5.7, Ecoli rRNA inh 1, Ecoli rRNA inh OD600 0 and Ecoli rRNA inh RFP -0.3.
For Cc1ccc(-c2ccc(C3[C@H]4CNC[C@@H]3N4C(=O)Nc3ccccc3Cl)cc2)cc1 (some centres not stated) the results were MLL AF4-AF9 inh 8.0&1.9, Ecoli rRNA inh -50&0, Ecoli rRNA inh OD600 -58&1 and Ecoli rRNA inh RFP -8.6&1.0.
`O=C(Nc1ccc2c(c1)OCO2)N[C@@H]1CC[C@H](CCNC(=O)C2CC2)O[C@H]1CO` gave MLL AF4-AF9 inh -4.8, Ecoli rRNA inh 1, Ecoli rRNA inh OD600 2 and Ecoli rRNA inh RFP -1.7.
For CCCNC(=O)Nc1ccc2c(c1)C(=O)N(C)C[C@@H](OC)[C@@H](C)CN(C(=O)C1CC1)[C@H](C)CO2 the results were MLL AF4-AF9 inh -1.0, Ecoli rRNA inh 1, Ecoli rRNA inh OD600 -1 and Ecoli rRNA inh RFP -0.6.
Screening O=[N+]([O-])c1cccc(COc2ccccc2CN2CCOCC2)c1 returned MLL AF4-AF9 inh 5.3, Ecoli rRNA inh 8, Ecoli rRNA inh OD600 1 and Ecoli rRNA inh RFP -0.2.
Screening C[C@@H]1CN([C@@H](C)CO)C(=O)c2cccc(NS(=O)(=O)c3ccc(Cl)cc3)c2O[C@H]1CN(C)Cc1ccc(Cl)c(Cl)c1 returned MLL AF4-AF9 inh 0.3, Ecoli rRNA inh 0, Ecoli rRNA inh OD600 2 and Ecoli rRNA inh RFP 0.2.
For O=C(Cc1ccccc1)N1CC(=O)N2[C@@H](CO)[C@@H](c3ccc(C#Cc4ccccc4)cc3)[C@@H]2C1 the results were MLL AF4-AF9 inh -10, Ecoli rRNA inh 0, Ecoli rRNA inh OD600 -13 and Ecoli rRNA inh RFP 4.5.
For O=C(C[C@@H]1CC[C@H]2[C@@H](COC[C@H](O)CN2C(=O)Nc2cccc(Cl)c2)O1)N1CCCCC1 the results were MLL AF4-AF9 inh -2.8, Ecoli rRNA inh -57, Ecoli rRNA inh OD600 -72 and Ecoli rRNA inh RFP -18.
Screening O=C(NCc1ccccc1)C(c1cccc2ccccc12)n1c(=O)c(-c2cc3ccccc3[nH]2)nc2ccccc21 (configuration not stated) returned MLL AF4-AF9 inh -28, Ecoli rRNA inh 13, Ecoli rRNA inh OD600 13 and Ecoli rRNA inh RFP 1.6.
`COc1ccccc1CNC(=O)C[C@H]1C[C@@H]2c3cc(N(C)C)ccc3O[C@@H]2[C@H](CO)O1` gave MLL AF4-AF9 inh 0.9, Ecoli rRNA inh 3, Ecoli rRNA inh OD600 1 and Ecoli rRNA inh RFP -0.1.
For O=C(N[C@@H]1C=C[C@H](CC(=O)N2CCc3ccccc3C2)O[C@H]1CO)C1CCOCC1 the results were MLL AF4-AF9 inh -4.2, Ecoli rRNA inh 3, Ecoli rRNA inh OD600 10 and Ecoli rRNA inh RFP 2.0.
CN(CC(=O)NCC(=O)Nc1ccc(F)cc1)CC(=O)Nc1ccc(Cl)c(C(F)(F)F)c1 was read as MLL AF4-AF9 inh -1.0, Ecoli rRNA inh -53, Ecoli rRNA inh OD600 -76 and Ecoli rRNA inh RFP -13.
For C[C@H]1CN([C@@H](C)CO)C(=O)c2cc(C#CCN(C)C)cnc2O[C@H]1CN(C)C(=O)Cc1ccncc1 the results were MLL AF4-AF9 inh -1.2, Ecoli rRNA inh 2, Ecoli rRNA inh OD600 11 and Ecoli rRNA inh RFP -1.1.
CC(C)NC[C@H]1[C@@H](c2ccc(-c3ccccc3)cc2)[C@@H](CO)N1CC1CC1 was read as MLL AF4-AF9 inh 5.0, Ecoli rRNA inh -1, Ecoli rRNA inh OD600 -4 and Ecoli rRNA inh RFP 5.0.
`CCNC(=O)C1CCCN(C(=O)c2cc(C)oc2C)CC1` (configuration not stated) gave MLL AF4-AF9 inh -0.9, Ecoli rRNA inh 11, Ecoli rRNA inh OD600 14 and Ecoli rRNA inh RFP -3.0.
C[C@@H]1CCCCO[C@H](CN(C)CC2CCCCC2)[C@@H](C)CN([C@H](C)CO)C(=O)c2cc(NC(=O)Nc3ccccc3)ccc2O1 was read as MLL AF4-AF9 inh 6.1, Ecoli rRNA inh 3, Ecoli rRNA inh OD600 6 and Ecoli rRNA inh RFP -1.5.
For C[C@@H]1CN([C@H](C)CO)C(=O)c2cc(NC(=O)Nc3cccc4ccccc34)ccc2O[C@H]1CN(C)C(=O)Nc1ccccc1 the results were MLL AF4-AF9 inh 3.6, Ecoli rRNA inh -5, Ecoli rRNA inh OD600 1 and Ecoli rRNA inh RFP -4.3.
CN1C(=O)c2cc(NS(C)(=O)=O)ccc2OC[C@H]2O[C@@H](CC(=O)NCc3ccccc3)CC[C@@H]21 was read as MLL AF4-AF9 inh -4.0, Ecoli rRNA inh 2, Ecoli rRNA inh OD600 0 and Ecoli rRNA inh RFP -2.6.
